# Arbovirus inh = antivirals against arbovirus infection, primary screen, cell-based, full library, 10K replicate subset | arbovirus infection cell-based antiviral screen | inhibition, % at 10 µM | 200,000 tested, 0.37% active | AID 1251, 2008;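 active = inhibition from about 30%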;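 also: bluetongue infection of BSR cells; cell survival read as ATP light after 72 h; 0% = infected wells without compound and 100% = uninfected wells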
# YopH PTP inh = YopH tyrosine phosphatase inhibitors, primary screen, biochemical, fluorescence Ex485/Em525; YopH tyrosine phosphatase [Yersinia enterocolitica]; inhibition, %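 (about 10 µM by stock and volumes)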; 140,000 tested, 0.16% active;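 active = inhibition of 50% or more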;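 also: controls were vehicle for no effect and minimum signal wells for full effect; inactives centre near -20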
# Mtb bLac sens = beta-lactam sensitization of Mtb H37Rv, H37Rv | M. tuberculosis H37Rv growth with meropenem, percent inhibition; hits of this screen are not shown here | inhibition, % at 25 µM | 330,000 tested, 0.27% active;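 active = about 74% or more and at least 40 points above the plate without the antibiotic, then above 30% in a dose series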;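 also: growth measured after seven days incubation then overnight dye step; 0% = bacteria only wells and 100% = bacteria with antibiotic; twin plates without the antibiotic show which effects depend on it; some results filed as inactive read as strong as hits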
# Mtb H37Rv = M. tuberculosis H37Rv growth inhibitors, H37Rv strain (AID 1626); M. tuberculosis H37Rv growth inhibition; higher % means a stronger effect; inhibition, % at 10 µM, or IC50 in µM where a hit was titrated; 220,000 tested, 0.95% active;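 active = confirmed in a dose series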;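 also: bacteria incubated seven days before Alamar blue readout; 0% = bacteria only wells and 100% = bacteria with antibiotic wells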
# RecA splice inh = Mtb RecA intein splicing inhibitors, primary screen, biochemical, fluorescence, HTS. Protein RecA (Mycobacterium tuberculosis (strain ATCC 25618 / H37Rv)), P9WHJ3. cell-free RecA intein splicing. inhibition, %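 (about 9 µM by stock and volumes)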. 290,000 tested, 0.75% active. AID 2221, 2009; in the data active = inhibition above about 30%;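 also: 0% = vehicle wells and 100% = reference inhibitor control wells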
# Target sequence (P9WHJ3 whole entry, looked up, canonical isoform): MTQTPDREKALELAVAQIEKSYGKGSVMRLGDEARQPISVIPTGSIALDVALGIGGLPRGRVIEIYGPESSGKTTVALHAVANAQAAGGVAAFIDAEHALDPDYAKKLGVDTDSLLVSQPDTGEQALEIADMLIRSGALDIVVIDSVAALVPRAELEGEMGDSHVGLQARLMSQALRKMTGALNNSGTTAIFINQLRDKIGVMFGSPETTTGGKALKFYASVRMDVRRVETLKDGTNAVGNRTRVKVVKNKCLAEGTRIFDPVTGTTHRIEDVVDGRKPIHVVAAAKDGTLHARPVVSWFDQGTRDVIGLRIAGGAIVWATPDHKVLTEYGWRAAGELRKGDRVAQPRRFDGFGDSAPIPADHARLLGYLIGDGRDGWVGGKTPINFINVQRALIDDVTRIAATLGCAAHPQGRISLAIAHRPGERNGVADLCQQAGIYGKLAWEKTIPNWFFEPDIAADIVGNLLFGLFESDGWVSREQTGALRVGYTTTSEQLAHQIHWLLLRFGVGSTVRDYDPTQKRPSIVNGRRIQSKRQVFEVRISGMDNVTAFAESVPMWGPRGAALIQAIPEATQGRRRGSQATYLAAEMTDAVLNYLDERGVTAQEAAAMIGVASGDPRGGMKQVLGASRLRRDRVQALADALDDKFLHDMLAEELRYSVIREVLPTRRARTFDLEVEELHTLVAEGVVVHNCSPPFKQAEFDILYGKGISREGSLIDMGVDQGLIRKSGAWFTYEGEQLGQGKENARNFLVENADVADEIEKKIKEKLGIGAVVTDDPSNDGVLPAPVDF
# * = called active by the depositor; . = not tested or not shown. A portion of the library (hit frequency here may not be typical).
# Every second line gives: Arbovirus inh | RecA splice inh | YopH PTP inh | Mtb H37Rv | Mtb bLac sens
Cc1csc(C(C#N)C(=O)c2ccc(S(=O)(=O)N3CCCC3)cc2)n1 (configuration not stated)
 : 9 | . | -59 | -14% | 4
CCN(CC(=O)NCc1cccs1)C(=O)c1ccc(S(=O)(=O)Nc2ccccc2F)cc1
 : . | 0.3 | . | . | -8
CC(C)c1ccc(S(=O)(=O)N2CCN(C(=O)Cc3ccsc3)CC2)cc1
 : . | 2.7 | . | . | -16
Cc1ccc(-c2cc(=O)[nH][nH]2)c(C)c1
 : -2 | 95* | -9 | 2% | 2
COc1cc(CN2CCCC(N3CCN(c4ccccc4C)CC3)C2)ccc1O (configuration not stated)
 : . | -0.5 | . | . | -6
CN(C)/C=C/c1c([N+](=O)[O-])c2ccc(O)cc2n1-c1ccccc1
 : . | 17 | . | -1% | 1
COc1ccc(S(=O)(=O)Nc2nc3c(s2)C(=O)CC(C)(C)C3)cc1
 : . | 1.0 | . | . | -5
COc1ccc(C(=O)Nc2cccc(C(=O)NCc3ccco3)c2)cc1
 : -22 | 1.5 | . | -3% | 6
COc1ccc(/C=C/C(=O)NCC(=O)N/N=C(/CCC(=O)O)c2ccccc2)cc1
 : . | -3.3 | . | -8% | 16
Cc1cc2c(c(=O)n1Cc1cccnc1)C(c1cccs1)C(C#N)=C(N)O2 (configuration not stated)
 : 9 | 0.2 | -6 | -11% | -7
O=[N+]([O-])c1ccc(-n2cc(-c3ccccc3)nn2)cc1
 : . | -0.7 | . | . | -2
CC(=O)c1ccc(N2CCN(CC(=O)NCc3ccccc3)CC2)cc1
 : . | 0.5 | . | . | -8
Cc1nc(NC(=O)c2ccccc2)nc2cc3c(cc12)OCO3
 : -5 | -0.4 | -28 | -9% | -4
CC1CCCCN1Cc1c(O)ccc2c(=O)c(-c3nc4ccccc4s3)c(N)oc12 (configuration not stated)
 : -16 | 0.0 | -31 | 18% | 82
C=CCN1CCN(C(=O)CCCc2ccccc2)CC1
 : . | 1.1 | . | . | 4
C[C@@H](C(=O)CC(=O)OC(C)(C)C)[C@@H](O)c1c(F)cccc1Cl
 : . | 1.6 | . | . | -7
Cc1cc(C)cc(CSCC(=O)N/N=C/c2ccc(OCC(=O)NCc3ccco3)cc2)c1
 : -7 | 0.6 | -5 | 4% | 2
Cc1ccc(NC(=O)Cc2nnc(SCC(=O)NC3CCCC3)n2C)cc1C
 : . | -0.7 | . | . | 1
NCCNc1cc(N2CCCC2)ccc1[N+](=O)[O-]
 : 9 | 1.4 | . | 1% | 30
O=C(Nc1ccc(O)c(-c2nc3ccccc3o2)c1)C1(c2ccc(Cl)cc2)CCCC1
 : -5 | -3.0 | -33 | -9% | -6

# Fetched one by one from the entries so far, 2 records:
# Every second line gives: Arbovirus inh | RecA splice inh | YopH PTP inh | Mtb H37Rv | Mtb bLac sens
COc1ccc(/C=C/C(=O)NCC(=O)N/N=C(/CCC(=O)O)c2ccccc2)cc1
 : . | -3.3 | . | -8% | 16
COc1ccc(S(=O)(=O)Nc2nc3c(s2)C(=O)CC(C)(C)C3)cc1
 : . | 1.0 | . | . | -5

# Continuation:
# Every second line gives: Arbovirus inh | RecA splice inh | YopH PTP inh | Mtb H37Rv | Mtb bLac sens
O=C(Nc1cc([N+](=O)[O-])ccc1F)C1CC1
 : -6 | -3.8 | -16 | -6% | 4
O=C(Nc1nccs1)c1ccc(Br)cc1
 : . | 0.1 | . | . | 3
CN(C)CCCN1C(=O)c2cccc3c(Br)ccc(c23)C1=O
 : -14 | . | . | 12% | 20
CC(C)c1ccc(NC(=O)c2cc3c(=O)n(C)c4ccccc4c3n2C)cc1
 : . | 0.0 | . | 3% | 49
COc1ccc(/C=C/C(=O)N2CCC(C(N)=O)CC2)cc1S(=O)(=O)N1CCOCC1
 : 5 | 0.4 | . | -1% | -3
CC(C)Oc1ccc(S(=O)(=O)N2CCOCC2)cc1NC(=O)C1CCC1
 : . | 2.0 | . | . | -14
Cc1ccc(NNC(=O)c2c(C)noc2C)cc1Cl
 : . | 1.8 | . | 60% | 96
Cc1cccc(OC(=O)C2C(c3ccccc3)C(C(=O)O)C2c2ccccc2)c1 (configuration not stated)
 : 13 | 3.3 | -30 | 4% | -2
CCOCc1[nH]c(=S)[nH]c(=O)c1Cc1ccc(OCC)cc1
 : 11 | -0.5 | . | -4% | -4
Cc1ccc(C)c(NC(=S)Nc2cccnc2)c1
 : 3 | 1.3 | . | -8% | 2
O=C(NCc1cccs1)C1CC1
 : 1 | . | . | 6% | -2
COc1ccc(CCNC(=O)COc2cccc3c2OC(C)(C)C3)cc1OC
 : . | -2.3 | . | . | -4
CCOC(=O)NC(c1ccc(C(C)C)cc1)C(Cl)(Cl)Cl (configuration not stated)
 : 1 | -1.0 | -16 | 6% | 8
CCCCCCC1/C(=N\NC(=O)c2ccccc2)CCC1C(=O)OC (configuration not stated)
 : . | -0.5 | . | . | 3
CC(C)C(=O)NCCc1nc(-c2ccccc2)no1
 : . | 2.3 | . | -7% | -13
COc1ccc(NC(=O)CSc2nnc(-c3cccnc3)o2)cc1
 : 2 | -1.2 | -25 | -2% | -2
COc1ccc(N/C(=C(/C(Cl)=C(Cl)Cl)[N+](=O)[O-])n2nnc3ccccc32)cc1
 : 12 | -41 | -37 | 6% | 2
C#CCOCCOCCOCCNc1nc(N2CCN(C(=O)[C@H](CCCCN)n3cc(C(N)CO)nn3)CC2)nc(N2CCN(C(=O)[C@H](CCC(=O)O)n3cc(C(N)Cc4ccc(O)cc4)nn3)CC2)n1 (some centres not stated)
 : . | 0.8 | . | -1% | .
COc1ccc(CCNC(=O)CN(C)S(=O)(=O)c2ccc(OC)cc2)cc1
 : . | -0.6 | . | . | -5
N#CCN(CC#N)C(=O)C1c2ccccc2Oc2ccccc21
 : . | 0.7 | . | . | -1

# Of the compounds above, these have an aryl thioether with sulfur outside any ring:
# Every second line gives: Arbovirus inh | RecA splice inh | YopH PTP inh | Mtb H37Rv | Mtb bLac sens
Cc1ccc(NC(=O)Cc2nnc(SCC(=O)NC3CCCC3)n2C)cc1C
 : . | -0.7 | . | . | 1
COc1ccc(NC(=O)CSc2nnc(-c3cccnc3)o2)cc1
 : 2 | -1.2 | -25 | -2% | -2

# Taken from above.
# For Mtb bLac sens, COc1ccc(CCNC(=O)CN(C)S(=O)(=O)c2ccc(OC)cc2)cc1 reads -5
# For RecA splice inh, C#CCOCCOCCOCCNc1nc(N2CCN(C(=O)[C@H](CCCCN)n3cc(C(N)CO)nn3)CC2)nc(N2CCN(C(=O)[C@H](CCC(=O)O)n3cc(C(N)Cc4ccc(O)cc4)nn3)CC2)n1 (some centres not stated) reads 0.8

# Next part
# Every second line gives: Arbovirus inh | RecA splice inh | YopH PTP inh | Mtb H37Rv | Mtb bLac sens
CCOc1cc(NC(=O)c2cccs2)c(OCC)cc1NC(=O)c1ccccn1
 : -8 | -3.2 | . | 0% | -5
Cc1cccc(-c2cc(N)n(-c3ccccc3)n2)c1
 : -17 | -1.4 | . | 0% | .
Cc1occc1C(=O)N(Cc1nc(-c2ccccc2)no1)C(C)C
 : . | 1.3 | . | . | -5
COc1ccc2[nH]c3c(=O)n(/N=C/c4ccc(OC)c(CN5CCCC5)c4)c(C)nc3c2c1
 : . | 0.2 | . | -8% | 5
Cc1ccccc1OCCC(=O)OCC(=O)NC1CC1
 : . | 0.9 | . | . | -6
COc1ccccc1C(=O)NC(C)c1cccc2ccccc12 (configuration not stated)
 : . | 7.4 | . | . | 0
Cc1cc([N+](=O)[O-])ccc1NC(=O)c1csc(C)c1C
 : . | 0.1 | . | . | 4
CCc1ccc(NC(=O)N2CCN(c3ccc(F)cc3)CC2)cc1
 : 10 | -4.2 | . | 10% | .
CC1CCN(C(=O)CNC(=O)CNS(=O)(=O)c2ccccc2)CC1
 : . | -0.4 | . | . | -10
COc1cccc(NC(=O)CN(C)S(=O)(=O)c2ccc3c(c2)n(C)c(=O)c(=O)n3C)c1
 : . | 2.0 | . | . | 2
CCCCn1c(N)c(N(Cc2ccccc2OC)C(=O)CCSC)c(=O)[nH]c1=O
 : . | -1.6 | . | . | 3
CCCc1cc(=O)[nH]c(SCCOc2ccc(Cl)cc2)n1
 : 13 | 6.0 | -31 | 4% | 13
Cn1ccnc1C(O)(c1nnc(-c2ccccc2)o1)C(F)(F)F (configuration not stated)
 : 11 | -4.9 | -29 | -6% | 30
O=C(NC(=O)c1ccccc1)Nc1ccc(Cl)cn1
 : . | -2.0 | . | . | 0
O=C(Nc1ccccc1)N1CCSc2cc(Cl)ccc21
 : 1 | -0.1 | -33 | -11% | 14
CCCCN(C)C(=O)c1cccc(OC2CCN(CC(C)(C)C)CC2)c1
 : . | 1.2 | . | . | -2
COC(=O)c1ccc(C)c(NC(=S)NCc2ccc(Cl)cc2)c1
 : 6 | 5.9 | -4 | 7% | 3
CCOc1ccc(-c2nc(S(=O)(=O)c3ccccc3)c(NCc3cccnc3)o2)cc1
 : -12 | -11 | -1 | -2% | 6
OCCC1CN(Cc2nc3c(s2)CCCC3)CCN1CCc1ccccc1 (configuration not stated)
 : 2 | -1.5 | . | 1% | -2
COc1ccc(C(=O)Nc2ccc(Cl)cc2C(=O)NCc2ccco2)cc1
 : -16 | -7.9 | 11 | -12% | -2

# Part of the list above, reformatted:
structure	Arbovirus inh	RecA splice inh	YopH PTP inh	Mtb H37Rv	Mtb bLac sens
CCOc1cc(NC(=O)c2cccs2)c(OCC)cc1NC(=O)c1ccccn1	-8	-3.2	.	0%	-5
Cc1cccc(-c2cc(N)n(-c3ccccc3)n2)c1	-17	-1.4	.	0%	.

# (cont.)
# Every second line gives: Arbovirus inh | RecA splice inh | YopH PTP inh | Mtb H37Rv | Mtb bLac sens
C/C(=C\C(=S)Nc1ccccc1)Nc1cccc2ccccc12
 : -33 | 5.8 | -6 | 41% | 64
CCOc1ccc(CCNC(=O)c2cccc3c2C(=O)N(CCOC)C3)cc1OCC
 : . | 0.0 | . | . | -6
COc1cccc(-n2nnnc2SCC(=O)NCCc2ccc(OC)c(OC)c2)c1
 : 3 | -0.8 | . | -25% | -3
CC(=O)c1cccc(N=Cc2c(O)c3ccccc3oc2=O)c1
 : . | -0.2 | . | . | 9
CCOC(=O)C1=C(C)Nc2nc(SCC(=O)OC)nn2C1c1cc(F)cc(F)c1 (configuration not stated)
 : 5 | 1.7 | -22 | 78% | 99
Cc1ccc(C(NC(N)=O)c2ccccc2C)cc1 (configuration not stated)
 : -7 | 0.4 | -17 | -6% | 7
C(=C\c1nc(-c2cccnc2)no1)/c1ccccc1
 : 3 | -1.5 | . | 4% | -5
COC(=O)c1ccc(Sc2ccccc2NS(=O)(=O)c2ccc(NC(C)=O)cc2)nc1
 : 0 | -0.5 | -23 | -4% | -14
CC(C)(C)NC(=O)C1CC(=O)OC12CCOC(C)(C)C2 (configuration not stated)
 : 1 | 13 | . | 0% | -3
Cc1cccc(C)c1NC(=O)CN(C)C(=O)c1cccc(-n2cccc2)c1
 : . | 0.3 | . | . | 0
CC(C)C[C@H]1COCCS(=O)(=O)N1Cc1cccc(F)c1
 : . | -0.5 | . | -1% | -11
CCCCn1c(O)c(C(CC)=NCCCN(C)C)c(=O)[nH]c1=O
 : 8 | . | -28 | 1% | -5
c1nc(N2CCC3(CC2)OCCO3)c2[nH]cnc2n1
 : -2 | 4.8 | -20 | 4% | -2
Cc1cc(C)n(CC(C)O)c(=O)c1C#N (configuration not stated)
 : 4 | -0.8 | -7 | -1% | 5
CC(C)[C@@H](C(=O)N[C@@H](Cc1ccccc1)C(=O)O)N1C(=O)N2CCc3c([nH]c4ccccc34)[C@@]2(C)C1=O
 : . | 2.4 | . | . | -2
